Screening data as filed in PubChem.
HCMV UL50-53 inh – cytomegalovirus nuclear egress complex inhibition | HTRF UL50-UL53 interaction, normalized percent inhibition | inhibition, % (no concentration beside the values) | 190,000 compounds, 0.15% hits | AID 1918969;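 active = both replicates at 50% or more, plus weaker picks with an unusually low signal ratio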;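 also: stock transfer was 100 nL into about 20 µL; 0% = negative control wells and 100% = wells with untagged competitor protein; inactives centre near -12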
GIV Gai3 FP – GIV-Galpha-i interaction inhibition; P08753; Galpha-i3/FITC-GIV peptide fluorescence polarization, 90 min; stronger effect = lower value; scaled: aluminum fluoride 0%, vehicle 100%; percent of control (FP), % (concentration not given with the values); 210,000 compounds, 0.42% hits; AID 1224905;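 active = replicate mean at 85% of control or lower, very high polarization wells dropped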;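 also: wells of about 15 µL received 100 nL stock; the first replicate is given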
Target sequence (P08753 whole entry, looked up): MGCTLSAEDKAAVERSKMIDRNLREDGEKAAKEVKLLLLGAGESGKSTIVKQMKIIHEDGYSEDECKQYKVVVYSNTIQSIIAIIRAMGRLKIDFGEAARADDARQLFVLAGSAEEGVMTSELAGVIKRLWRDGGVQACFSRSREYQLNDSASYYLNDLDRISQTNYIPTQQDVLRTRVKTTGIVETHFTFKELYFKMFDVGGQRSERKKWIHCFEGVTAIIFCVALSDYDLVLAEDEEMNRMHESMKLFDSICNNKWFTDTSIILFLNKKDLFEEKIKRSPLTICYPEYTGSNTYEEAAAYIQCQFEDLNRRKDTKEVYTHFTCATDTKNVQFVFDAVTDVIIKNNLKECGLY
Sa growth inh – blocks Staphylococcus aureus growth; S. aureus RN4220 growth, OD600, 20 h, 42 °C; stronger effect = lower value; relative growth, % (concentration not given with the values); 170,000 compounds, 0.53% hits; AID 720641;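 active = growth at 42 °C up to 50% and 20 or more points under that at 30 °C, or under 10% at both; inconclusive = no clear call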;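 also: 300 nL library stock went into each well; scaled to the means of positive and negative controls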
Sa growth inh second temp – second read-out of Sa growth inh, no call of its own (marks repeat the call); relative growth, %; measured here: growth at 30 °C;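 optical density after 20 h as mean of two plates; 100% = untreated growth and lower means inhibition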
The depositor's hits bear a star; ? = inconclusive; . = no result given; & = joins results of further samples.

Results follow in this order: HCMV UL50-53 inh	GIV Gai3 FP	Sa growth inh	Sa growth inh second temp
1. CCOc1ccc(CNCc2ccc3nccnc3c2)cc1
  -66	99	.	.
2. CCn1c(C)c(P(=O)(N2CCOCC2)N2CCOCC2)c2ccccc21
  8	.	99	93
3. CC(C)(C)NC(=O)c1oc2ccccc2c1NC(=O)c1ccc(F)cc1
  .	101	95	94
4. COc1ccccc1N(CC(=O)Nc1ccccc1C(F)(F)F)S(=O)(=O)c1ccc(C)cc1
  -44	103	101	85
5. CCc1cc2[nH]c(C(=O)OC)cc2s1
  .	108	110	82
6. COCc1c(C(=O)Nc2cc(C)cc(C)c2)oc2ccccc12
  -21	.	68	91
7. O=C(CN1C(=O)CCCc2ccccc21)N1CCN(Cc2ccccc2)CC1
  -1	117	.	.
8. O=C(NC1CCCC1)c1cccc(N2C(=O)CCS2(=O)=O)c1
  -25	108	.	.
9. CCOC(=O)c1nn(-c2ccc(F)cc2)c(=O)cc1NCCC(c1ccccc1)c1ccccc1
  -26	97	.	.
10. COc1ccc(-c2nc(N)nc(C(F)(F)F)c2-c2cscn2)c(O)c1
  -14	105	.	.
11. Cc1cccc(/C=C2/Oc3ccccc3N(CC(=O)N3CCC4(CC3)OCCO4)C2=O)c1
  .	106	86	91
12. NC1=Nc2cc(C(=O)O)ccc2Sc2ccccc21
  -27	100	114	83
13. CCN(CC)S(=O)(=O)c1cccc(S(=O)(=O)c2ccc(Cl)c(S(=O)(=O)N(CC)CC)c2)c1
  7	110	102	98
14. Cn1cc(C(=O)N2CCCCC2)c2[nH]c(=O)n(-c3ccc(Cl)cc3)c(=O)c21
  -29	99	.	.
15. Cc1ccc2nc(NCC(C)c3ccccc3)c3nnnn3c2c1 (stereo not given)
  -3	145	91	94
16. O=C(CSc1nc2ccccc2o1)N(Cc1cccs1)c1ccc2c(c1)OCCO2
  -18	.	89	102
17. NS(=O)(=O)c1ccc(CCNC(=O)CCc2nc3sc4c(c3c(=O)[nH]2)CCCC4)cc1
  5	98	86	92
18. S=C(Nc1ccccc1)Nc1ccccn1
  -10	100	101	83
19. O=C(NCC1CCCN2CCCCC12)c1cccc(Br)c1 (stereo not given)
  -2	.	114	91
20. Nc1n[nH]c2cc(=O)[nH]c(O)c12
  110*	48*	97	92
21. O=C(Nc1cccc(C(F)(F)F)c1)c1cccnc1NCCO
  -16	98	98	89
22. COc1ccc(-c2c(C#N)c(N)nc3sc(C(=O)c4ccc(Cl)cc4)c(N)c23)cc1OC
  -19	108	.	.
23. Cc1nc(CSc2nnc(-c3c[nH]c4ccccc34)o2)cs1
  -6	.	99	95
24. O=C(O)c1ccccc1SCCS(=O)(=O)c1cccc(C(F)(F)F)c1
  -2	105	107	93
25. COCCOC(=O)C1=C(C)NC(=O)NC1c1cn(-c2ccccc2)nc1-c1ccc(Cl)cc1 (stereo not given)
  -19	109&100	.	.
26. CCc1nn(CC(=O)N2CCN(c3ccc(Cl)cc3)CC2)c(=O)c2cc3occc3n12
  -14	101	108	84
27. N#CC(C(=O)c1cccs1)=C1SCCCS1
  -38	102	118	89
28. COc1ccc(C2Nc3ccc(C(=O)c4ccccc4)cc3NC3=C2C(=O)CC(C)(C)C3)c(OC)c1 (stereo not given)
  -9	104	.	.
29. CC(=O)OCc1cnc(C)c2oc(=O)c(C(=O)Nc3cc(F)ccc3C)cc12
  -13&-34	105&98	92	105
30. CCN(C(=O)c1cccs1)c1cccc2ccccc12
  -21	101	96	90

The list goes on, starting with the last 4 of the part before.
Results follow in this order: HCMV UL50-53 inh	GIV Gai3 FP	Sa growth inh	Sa growth inh second temp
27. N#CC(C(=O)c1cccs1)=C1SCCCS1
  -38	102	118	89
28. COc1ccc(C2Nc3ccc(C(=O)c4ccccc4)cc3NC3=C2C(=O)CC(C)(C)C3)c(OC)c1 (stereo not given)
  -9	104	.	.
29. CC(=O)OCc1cnc(C)c2oc(=O)c(C(=O)Nc3cc(F)ccc3C)cc12
  -13&-34	105&98	92	105
30. CCN(C(=O)c1cccs1)c1cccc2ccccc12
  -21	101	96	90
31. CCOC(=O)c1c(C)n(-c2ccccc2)c2c1cc(OC(=O)c1ccc(Cl)cc1)c1ccccc12
  -24	101	.	.
32. CC1CC(C)CN(C(=O)c2ccc3ncsc3c2)C1 (stereo not given)
  14	.	99	94
33. O=S(=O)(c1cccc2nsnc12)N1CC(OCc2ccc(F)cc2)C1
  -95	96	.	.
34. Cn1c(=O)n(C)c2cc(NS(=O)(=O)c3ccc(Cl)cc3)c(NCc3ccccc3)cc21
  9	98	102	99
35. COc1ccc(-c2nc3ccsc3c(=O)o2)cc1
  -2	.	109	79
36. CCCc1cc(Nc2ccc(Cl)cc2)n2nc(-c3ccco3)nc2n1
  -13	110	.	.
37. COc1ccccc1CNC(=O)CN(C)S(=O)(=O)c1ccc2c(c1)C(=O)NCC(=O)N2
  -1	106	.	.
38. Cc1ccn(CO)n1
  -45	104	102	83
39. COc1ccc(C2C(C(=O)N3CCN(c4ccccc4)CC3)c3ccccc3C(=O)N2C)cc1 (stereo not given)
  -6	100	95	83
40. O=C(CCc1nnc2n(Cc3ccccc3)c(=O)c3ccccc3n12)N1CCC(Cc2ccccc2)CC1
  -21	101	.	.
41. Cc1ccc2nc(SCC(=O)Nc3ccc(Cl)c(Cl)c3)[nH]c2c1
  -3	107	.	.
42. Cc1ncc(CO)c2c1Oc1nc(-c3ccccc3F)nc(SCC(=O)N3CCCCC3)c1C2
  .	102	78	81
43. CC(C)(C)C1CCc2onc(C(=O)Nc3cccc(O)c3)c2C1 (stereo not given)
  -22	97	96	92
44. CN(C)c1ccc(C(=O)Nc2c(C(=O)NC(C)(C)C)oc3ccccc23)cc1
  .	98	75	93
45. COC(=O)C1=CN(c2ccc(F)cc2)C=C(C(=O)OC)C1c1cccs1
  -26	.	108	91
46. COc1ccc(CCNC(=O)CCCc2cn(C)c3ccccc23)cc1OC
  .	101	111	74
47. CCc1c(C(=O)OC)nn(-c2ccc(OC)cc2)c(=O)c1C#N
  -180	105	101	96
48. O=S(=O)(c1ccc(F)cc1)N1CCN(c2cc(-c3ccc(F)cc3)ncn2)CC1
  6	102	.	.
49. COc1ccc(OC)c(C(O)CNC(=O)CN)c1 (stereo not given)
  -33&-13&-42	.	99	93
50. O=C(Nc1cc(F)ccc1F)C1CCN(C(=O)c2cccn2-c2cccnc2)CC1
  -27	106	.	.
51. O=c1[nH]cnc2c(-c3cccc(F)c3)csc12
  -12	100	.	.
52. CC(=O)Nc1ccc2nc(-c3cc(C)ccc3C)[nH]c2c1
  15	107	97	108
53. Cc1ccc(S(=O)(=O)NCCN=Cc2ccc(N(C)C)cc2)cc1
  -22	110	82	74
54. O=c1oc2ccccc2cc1-c1cn2ccccc2n1
  -28	.	144	98
55. O=C1/C(=C/c2cccs2)SC(=S)N1/N=C/c1cccs1
  -15	124	106	91
56. CCCc1cc(-c2nc(-c3ccc(Br)cc3)cs2)ccn1
  .	100	59	43
57. CC1(C)CC(=O)C(C=Nc2ccc(S(=O)(=O)Nc3nccs3)cc2)=C(O)C1
  -12	.	66	55
58. O=C(c1cccc(NS(=O)(=O)c2ccc(F)c3ccccc23)c1)N1CCOCC1
  -30	102	125	93
59. O=C(Cn1c(=O)sc2ccccc21)Nc1ccc(O)cc1
  -7	98	133	86
60. CN(Cc1ccccc1)C(=O)COc1ncnc2ccccc12
  -3	.	87	88
61. O=C1c2ccccc2C(=O)N1CC1=NCCc2ccccc21
  -24	106	97	90
62. CCNC(=O)C1CCN(c2nc3c(C)cc(C)cc3s2)CC1
  .	97	87	86
63. COC(=O)c1ccccc1S(=O)(=O)NC(=O)Nc1nc(C)c2c(n1)CCS(=O)(=O)C2
  -20	103	91	88
64. COc1cc(NC(=O)c2nnn(Cc3ccc(F)cc3)c2N)cc(OC)c1
  -15	104	103	84
65. COc1ccccc1NC(=O)C1=C(C)Nc2ncnn2C1c1cccn1C (stereo not given)
  .	105	105	102
66. Cc1cn(C)c(CC(=O)N2CCN(c3ccc(F)cc3)CC2)c1C(=O)O
  .	110	109	98
67. CC1(C)Cc2cccc(OCC(=O)NCc3ccc4c(c3)OCO4)c2O1
  -8	.	88	90
68. N#CC(C#N)=C(N)/C(C#N)=C/c1ccc(-c2cccc(C(=O)O)c2)o1
  -49	.	95	77
69. Cc1ccc(NCc2n[nH]c(=S)n2C)cc1Cl
  -9	100	92	82
70. COc1cccc(CNC(=O)Cn2cccc2C(=O)c2ccccc2)c1
  -35	104	81	83
71. O=S(=O)(Nc1ccc2c(c1)CCCN2S(=O)(=O)c1ccccc1)c1ccc2c(c1)OCCO2
  17	106	.	.
72. COc1cc(C2c3c(oc4ccc(C)cc4c3=O)C(=O)N2Cc2ccc(F)cc2)ccc1O (stereo not given)
  2	98	87	90
73. O=P(c1ccccc1)(c1ccccc1)C1CCS(=O)(=O)C1 (stereo not given)
  -11	.	83	92
74. COC(=O)Cn1c(O)c(N=NC(=O)c2ccc3ccccc3c2O)c2ccccc21
  -20	107	102	66
75. CN(C(=O)c1ccc(N2C(=O)CCS2(=O)=O)cc1Cl)c1ccccc1
  -31	105	.	.
76. COCCn1nnc2cc(S(=O)(=O)N3CCCC3C(=O)NCc3ccc(C)cc3)ccc21 (stereo not given)
  -6	106	.	.
77. CN(CCc1ccccn1)C(=O)Nc1cc(Cl)cc(Cl)c1
  0	111	97	75
78. CCc1ccc(Oc2coc3cc(OC(=O)c4ccco4)ccc3c2=O)cc1
  .	99	120	78
79. O=C(Nc1cc(Oc2cccnc2)cc([N+](=O)[O-])c1)c1cc2nc(-c3ccco3)cc(C(F)(F)F)n2n1
  -16	100	.	.
80. O=C(CN1CC(=O)Nc2ccccc21)NCCc1ccc(Cl)cc1
  -4	.	94	92
81. O=C(O)CCc1ccc(-c2ccc(F)cc2)[nH]1
  1	.	105	108
82. CCOC(=O)c1ccc(N=Cc2nc3ccccc3n2C)cc1
  3	107	114	105
83. O/N=C(\c1ccccc1)c1nccc2ccccc12
  -49	104	105	89
84. Cc1oc(-c2ccc(Cl)cc2)nc1Cn1c(=O)cc(C)c2c(C)nn(-c3ccccc3)c21
  .	104	96	90
85. Cc1cc(Cl)ccc1NC(=O)Cn1c(=O)c(C(F)(F)F)nc2ccccc21
  -17	102	.	.
86. CC(C)(C)C1(C)OC(CO)C(CO)O1 (stereo not given)
  -11	99	107	104
87. c1ccc(CCn2c(Cc3cccs3)nc3ccccc32)cc1
  -13	.	74	57
88. CCCCCN1C(C)=CC(=C(C#N)C#N)C=C1C
  6	.	107	101
89. CCC1(C)C2CCC1(C)C(NC(=O)c1ccccc1)(C(=O)O)C2 (stereo not given)
  12	.	111	106
90. COc1ccc(OCc2nc(-c3cc4c(C)nn(-c5ccccc5)c4s3)no2)cc1
  -5	107	.	.

Remaining list, next part.
Results follow in this order: HCMV UL50-53 inh	GIV Gai3 FP	Sa growth inh	Sa growth inh second temp
91. Cc1cc(C)n2ncc(C(=O)N3CCN(c4ncccn4)CC3)c2n1
  3	104	.	.
92. COc1ccc(C(=O)NC(c2c(C)[nH]n(-c3ccccc3)c2=O)(C(F)(F)F)C(F)(F)F)cc1
  .	102	124	87
93. COC(=O)c1cn(NC(=O)C2CCCO2)c(=O)c2ccccc12 (stereo not given)
  .	97	122	90
94. CCOc1ccccc1NC(=O)CSc1ncc(S(=O)(=O)c2ccc(C(C)(C)C)cc2)c(=O)[nH]1
  -12	99	?	.
95. COc1ccccc1CNC(=O)C(=O)NCC(c1cccnc1)N1CCN(c2ccc(F)cc2)CC1 (stereo not given)
  -13	101	92	40
96. C(=Nc1nc2ccccc2nc1N1CCCC1)N1CCOCC1
  -7	.	93	101
97. COC(=O)C(C(=O)OC)C1(C)CCC(OC)C1(C)C (stereo not given)
  -13	.	85	92
98. O=C(CCCSc1nc2ccccc2[nH]1)NCc1ccco1
  -2	.	94	97
99. CSc1ccc(C2C(C#N)=C(N)Oc3c2ccc(=O)c2c(C)oc(C)c32)cc1 (stereo not given)
  -27	145	75	70
100. Cc1cc(C)cc(NC(=O)C2CCCC2)c1
  -15	.	96	93
101. Cc1nn(-c2cc(N3CCOCC3)ncn2)c(C)c1CCC(=O)N1CCN(CCO)CC1
  -13	99	.	.
102. COc1cccc(OCC(=N)N)c1
  4	102	90	79
103. Cc1cccc(-c2nc(C)c(CCNC(=O)C(=O)Nc3cccc(Cl)c3C)s2)c1
  .	100	106	88
104. CCc1ccc(-n2cnc3cc(C(=O)NCCc4ccccc4)ccc32)cc1
  .	100	86	75
105. O=C(COc1ccc(F)cc1)Nc1ccc(-n2cnnn2)cc1
  2	.	96	89
106. c1ccc2c(c1)SCc1nnc(-c3ccncc3)n1-2
  -20	103	89	81
107. COc1ccc(-c2nc(C)c(CCNC(=O)C(=O)Nc3cccc(F)c3)s2)cc1OC
  .	101	98	81
108. CCOC(=O)c1cnn(CCOC(=O)CC2CCCCC2)c1NC(=O)CC1CCCCC1
  -13	104	.	.
109. O=C(NCC(c1ccc(Cl)cc1)N1CCCCC1)c1cc(-c2ccc3c(c2)OCCO3)on1 (stereo not given)
  -16	107	.	.
110. CC(=O)Nc1ccc(OCCCl)c(OCCCl)c1
  -8	.	99	72
111. COc1ccc(NC(=O)C2CCCN(c3nc4ccccc4nc3C(F)(F)F)C2)c(OC)c1 (stereo not given)
  -10	104	.	.
112. COc1ccccc1OCCn1c(N)nc2ccccc21
  .	99	87	74
113. Cn1c(CSCc2nc(-c3ccc(Cl)cc3)cs2)n[nH]c1=S
  -3	109	96	92
